# Screening data: PubChem BioAssay, Johns Hopkins Ion Channel Center
# KCNQ2 inh = KCNQ2 potassium channel inhibitors, primary screen, cell-based, CHO-K1, FluxOR thallium flux, B-score (AID 2156). 1.1% of 310,000 active. 20 min; stronger effect = lower value; only compounds with negative scores are shown here; some inactives read as strong as hits. Potassium voltage-gated channel subfamily KQT member 2 (Rattus norvegicus), O88943. B-score at 10 µM;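 active = fluorescence ratio B-score at most minus 3 library SDs, with starting brightness B-score within 2 library SDs, cut at about -5.5 in these data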
# Target sequence (O88943 whole entry, looked up): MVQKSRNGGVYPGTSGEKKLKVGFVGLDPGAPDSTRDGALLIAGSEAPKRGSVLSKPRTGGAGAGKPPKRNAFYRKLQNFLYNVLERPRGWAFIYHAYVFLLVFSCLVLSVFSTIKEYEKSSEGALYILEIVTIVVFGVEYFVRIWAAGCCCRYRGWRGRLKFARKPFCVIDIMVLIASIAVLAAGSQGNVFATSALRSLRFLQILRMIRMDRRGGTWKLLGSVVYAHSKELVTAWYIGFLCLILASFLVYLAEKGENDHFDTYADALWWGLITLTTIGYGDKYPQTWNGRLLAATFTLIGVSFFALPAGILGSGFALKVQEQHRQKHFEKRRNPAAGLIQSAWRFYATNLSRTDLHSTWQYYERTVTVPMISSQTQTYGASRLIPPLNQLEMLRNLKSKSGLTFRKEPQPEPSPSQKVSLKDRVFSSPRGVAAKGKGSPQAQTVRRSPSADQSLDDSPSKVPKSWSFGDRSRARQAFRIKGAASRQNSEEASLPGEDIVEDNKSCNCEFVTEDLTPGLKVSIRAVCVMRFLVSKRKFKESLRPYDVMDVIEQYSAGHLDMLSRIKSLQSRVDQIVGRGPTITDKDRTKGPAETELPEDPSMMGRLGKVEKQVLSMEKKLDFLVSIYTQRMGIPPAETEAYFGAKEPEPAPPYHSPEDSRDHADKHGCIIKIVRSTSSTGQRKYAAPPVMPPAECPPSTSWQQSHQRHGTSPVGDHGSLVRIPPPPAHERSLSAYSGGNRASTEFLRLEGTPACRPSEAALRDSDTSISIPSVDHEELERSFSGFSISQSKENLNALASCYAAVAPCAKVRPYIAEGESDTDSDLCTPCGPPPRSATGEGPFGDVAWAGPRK
# KCNQ2 inh baseline = further read-out of KCNQ2 inh, marked with its call; B-score; measured here: initial fluorescence intensity artifact check;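 brightness before thallium and not channel activity; 0 = typical well and far values either way flag optical interference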
# * marks the source's active call; other numbers are inactive results; i = inactive.
canonical_smiles,KCNQ2 inh,KCNQ2 inh baseline
O=C(O)c1ccc(S(=O)(=O)c2ccc3c(c2)C(=O)N(c2ccc(Br)cc2)C3=O)cc1,i,0.13
COc1ccccc1NC(=O)c1ccc(NC(=O)Cc2n[nH]c(=O)c3ccccc23)cc1,i,0.07
COc1ccccc1C(=O)Nc1nnc(S(=O)(=O)N2CCCCCC2)s1,i,-0.71
COc1ccc(NC(=O)CNc2cccc(C#N)c2)cc1Cl,i,1.1
COc1ccc(NC2CCCN(C(=O)CCc3cn[nH]c3)C2)cc1 (stereo not given),i,0.48
O=C(Nc1ccc(COc2ccccc2)cc1)Oc1ccccc1N1CCOCC1,i,-1.2
CCn1c(SCc2ccc(C(=O)Nc3nccs3)cc2)nnc1-c1ccc(N)cc1,i,0.07
O=S(=O)(Nc1ccc(-c2ccc(N3CCOCC3)nn2)cc1)c1cc(Cl)ccc1Cl,i,-0.43
CCOC(=O)c1c(C)[nH]c(C)c1C(=O)CSc1nc2ccccc2c(=O)n1-c1ccccc1C,i,0.51
CN(C)S(=O)(=O)c1ccc(NC(=O)COC(=O)C2COc3ccccc3O2)cc1 (stereo not given),i,-0.03
CCCCCCCCCCOC(=O)Cn1c(COc2ccc(OC)cc2)[n+](C)c2ccccc21,i,5.7
Cc1ccc(NC(=O)CN(C)C(=O)CSc2nc(C)cs2)cc1,i,0.55
COc1ccc(N2CC(C(=O)Nc3c(C(N)=O)oc4ccccc34)CC2=O)cc1 (stereo not given),i,-0.01
O=C(COc1ccc(Cl)cc1Cl)NC(=O)N1CCCCC1,i,0.79
Cc1ccc(CN2CC(C(=O)Nc3ccc(C)cn3)CC2=O)cc1 (stereo not given),i,-0.1
O=C(CSc1ccccn1)NCc1ccc2c(c1)OCO2,i,0.38
COc1ccccc1CNC(=O)C1CCN(c2ncnc3c2nc2n3CCCCC2)CC1,i,1.1
COc1ccc(C(=O)NCC(=O)OCC(=O)N2CCC(C)CC2)cc1OC,i,0.35
COCC1CCN(Cc2c(C(=O)N3CCN(C4CCCCC4)CC3)nc3ccccn23)C1 (stereo not given),i,0.75
O=C(C1=C(O)C(=O)N(CC2CCCO2)C1c1ccccc1[N+](=O)[O-])c1ccco1 (stereo not given),i,-0.09
COc1ccccc1/C=N/NC(=O)CCSc1ccccc1,i,0.93
CCOC(=O)C(NC(=O)c1ccc(OC)cc1)(OCC1(CC)COC1)C(F)(F)F (stereo not given),i,0.08
COc1ccc(-c2noc(CCCC(=O)Nc3ccc(C(N)=O)cc3)n2)cc1OC,i,-0.43
COc1ccc(C(=O)C2CN(c3ccccc3)CC2c2ccc(Cl)cc2)cc1 (stereo not given),i,-2.6
CCc1ccc2c(c1)C(NC(C)=O)C(=O)N2CCN1CCOCC1 (stereo not given),i,-0.55
CN(C(=O)CN1C(=O)S/C(=C\c2ccc(F)cc2)C1=O)C1CCS(=O)(=O)C1 (stereo not given),i,1.2
Cn1c(=O)n(Cc2ccc(F)cc2)c(=O)c2c1nc1n2CCCN1Cc1ccccc1,i,0.98
COc1ccc(NC(=O)c2cc(-c3cc(C)ccc3O)n[nH]2)cc1Cl,i,0.22
COC(=O)C1CCCN1S(=O)(=O)c1ccccc1NC(=O)c1cc(OC)c(OC)c(OC)c1 (stereo not given),i,0.11
CCCc1n[nH]c2c1/C(=N\O)CCC2,i,0.09
COc1ccc(CN2C=C3C(=O)C(C)(OC(=O)C4CCCC4)C(=O)C=C3C=C2c2ccsc2)cc1 (stereo not given),i,-1.8
O=C(CCN1C(=O)C2CC=C(Cl)CC2C1=O)NCc1ccccc1 (stereo not given),i,1.8
Cc1c(C(=O)O)oc2c(F)cccc12,i,0.2
Cc1ccc(-c2cc(C(=O)NC3CCN(Cc4ccccc4)CC3)c3ccccc3n2)cc1,i,-0.53
Cc1c(NS(=O)(=O)c2cccc(C(=O)NCc3ccncc3)c2)c(=O)n(-c2ccccc2)n1C,i,-0.28
Cc1nc(NC(=O)c2cccnc2Cl)sc1C,i,2.8
COc1ccccc1CCNC(=O)CCn1c(=O)c2cccn2c2ccc(F)cc21,i,0.86
Cc1csc2ncc(C(=O)NCc3ccco3)c(=O)n12,i,-0.97
COc1ccc(N(C)S(=O)(=O)c2cccc(C(=O)OC(C)C(=O)NC3CCCCC3C)c2)cc1 (stereo not given),i,-0.01
Cc1cc([N+](=O)[O-])ccc1NC(=O)C(C)N1CCN(c2ccccn2)CC1 (stereo not given),i,-0.22
Cc1scc(C(=O)NNC(=S)NC(C)c2ccccc2)c1C (stereo not given),i,1.6
N/C(=N\OC(=O)c1ccc(Cl)cc1)c1nonc1N,i,1.4
CCOc1ccccc1CNn1nnnc1N,i,0.47
CCNC(=O)/C(C#N)=C/c1c(N2CCN(c3ccc(OC)cc3)CC2)nc2c(C)cccn2c1=O,i,1.7
CO/N=C/Cc1c([N+](=O)[O-])c(C)nn1C,i,0.46
Cc1ccc(-c2cc(-c3ccccc3)c(C#N)c(Br)n2)cc1,i,-1
Cc1ccc(C)c(S(=O)(=O)N2CCCC2CNC(=O)C(=O)NC2CCCCCC2)c1 (stereo not given),i,-1.9
CN1CCN(C(=S)c2ccc(-c3cc(Cl)ccc3Cl)o2)CC1,i,-0.96
CCC(C)(C)C(=O)Nc1cc([N+](=O)[O-])ccc1F,i,0.91
CCN(CC(=O)NCc1ccc2c(c1)OCO2)S(=O)(=O)c1ccc(F)cc1,i,0.55

# (further entries)
canonical_smiles,KCNQ2 inh,KCNQ2 inh baseline
CC(C)N1CCC(N2CCN(Cc3cnc(-c4ccccc4)s3)CC2CCO)CC1 (stereo not given),i,0.05
Cc1cccc(-c2noc(CN(C(=O)c3ccc(Br)o3)C(C)C)n2)c1,i,0.7
C=CCOC(=O)C1=C(C)NC(=O)NC1C1CC=CCC1 (stereo not given),i,-0.06
CC(=O)c1cn(CC(=O)Nc2ccc(C)cc2C)c2ccccc12,i,-0.44
Cc1ccc(-c2cc(C(=O)N/N=C/c3ccoc3)c3ccccc3n2)cc1,i,-2
COc1ccc2nc(Cl)c(C#N)cc2c1,i,-0.06
Cc1cc(C)nc(NCCC(=O)O)n1,i,-0.57
COCCNC(=S)N/N=C(\C)c1ccc(OC(F)F)cc1,i,0.01
Cc1cc(NCCCN2CCOCC2)n2ncc(-c3ccccc3)c2n1,i,2.4
CC(C)(C)C(=O)COC(=O)c1ccc(N)c([N+](=O)[O-])c1,i,0.6
CC(C)Oc1nc(-c2ccccc2Cl)nc2ccccc12,i,2.7
NC(=O)c1cc2c3ccccc3ccn2c1-c1ccccc1,i,0.21
N#Cc1ccc(/C=C/C(=O)c2ccco2)cc1,i,2.3
CCOC(=O)N1CCN(C(=O)C(C)(C)Oc2ccc(Cl)cc2)CC1,i,-1.6
Cc1ccc2c(c1)N(C(=O)NC1CCCCC1)C(C)(C)CC2C (stereo not given),i,-0.31
COc1ccc(C2/C=C\CN(C(=O)NC34CC5CC(CC(C5)C3)C4)CC(=O)N2Cc2ccc(F)cc2)cc1 (stereo not given),i,1.6
COc1ccc(CNCCc2ccc(Cl)cc2)cc1OCc1ccccc1,-13*,0.28*
NNC(=O)c1ccc(CSc2nc3ccccc3s2)cc1,i,0.71
Cc1c(C#N)c2ccccc2n1CC(=O)NC(C)c1ccccc1 (stereo not given),i,2.6
CCCCn1c(N)c(N(CC(C)C)C(=O)C2CC(=O)N(CCc3ccccc3)C2)c(=O)[nH]c1=O (stereo not given),i,0.42

# Arranged by molar mass (ascending): some entries from above.
canonical_smiles,KCNQ2 inh,KCNQ2 inh baseline
Cc1cc(C)nc(NCCC(=O)O)n1,i,-0.57
COc1ccc2nc(Cl)c(C#N)cc2c1,i,-0.06
N#Cc1ccc(/C=C/C(=O)c2ccco2)cc1,i,2.3
CC(C)(C)C(=O)COC(=O)c1ccc(N)c([N+](=O)[O-])c1,i,0.6
NC(=O)c1cc2c3ccccc3ccn2c1-c1ccccc1,i,0.21
CC(C)Oc1nc(-c2ccccc2Cl)nc2ccccc12,i,2.7
Cc1ccc2c(c1)N(C(=O)NC1CCCCC1)C(C)(C)CC2C (stereo not given),i,-0.31
Cc1c(C#N)c2ccccc2n1CC(=O)NC(C)c1ccccc1 (stereo not given),i,2.6
CC(=O)c1cn(CC(=O)Nc2ccc(C)cc2C)c2ccccc12,i,-0.44
Cc1cc(NCCCN2CCOCC2)n2ncc(-c3ccccc3)c2n1,i,2.4
Cc1ccc(-c2cc(C(=O)N/N=C/c3ccoc3)c3ccccc3n2)cc1,i,-2
COc1ccc(CNCCc2ccc(Cl)cc2)cc1OCc1ccccc1,-13*,0.28*
CCCCn1c(N)c(N(CC(C)C)C(=O)C2CC(=O)N(CCc3ccccc3)C2)c(=O)[nH]c1=O (stereo not given),i,0.42
COc1ccc(C2/C=C\CN(C(=O)NC34CC5CC(CC(C5)C3)C4)CC(=O)N2Cc2ccc(F)cc2)cc1 (stereo not given),i,1.6

# Remaining list, next part:
# Below each compound – KCNQ2 inh	KCNQ2 inh baseline
O/N=C/c1ccc(-c2ccccc2OC(F)(F)F)o1
→ i	0.42
CCc1ccc2c(c1)C1(NN=C(c3ccccc3)S1)C(=O)N2 (stereo not given)
→ i	-0.04
COc1cc2c(cc1OC)C(c1cccc(F)c1)CC(=O)N2 (stereo not given)
→ i	-0.77
COCCNC(=O)c1ccc(NS(=O)(=O)c2cc(C)ccc2C)cc1
→ i	-1.2
O=C(N/N=C/c1ccc(F)cc1)c1c(O)c2ccccc2[nH]c1=O
→ i	0.96
COc1cc(NC(=O)c2ccc(Br)o2)ccc1NC(=O)c1ccccc1Cl
→ i	0.48
CCn1c(C(=O)O)c(S(=O)(=O)c2ccc(Cl)cc2)c2ccccc21
→ i	-0.68
O=C(NCc1cccc(Cl)c1)c1ccc2nc[nH]c2c1
→ i	-2.4
CCOC(=O)CSC1=C(C#N)C(=O)NC2(CCCCC2)S1
→ i	0.89
O=C1CCC(C(=O)N(Cc2ccco2)C2(C(=O)NC3CCCC3)CCCCC2)N1 (stereo not given)
→ i	0.64
Nc1ccccc1C#Cc1ccc([N+](=O)[O-])cc1
→ i	-0.39
Cc1cc2ncn(S(=O)(=O)N3CCCCC3)c2cc1C
→ i	1
O=C(CCC(=O)N1CCc2ccccc21)Nc1ccccc1
→ i	0.31
CCCCn1c(N)c(N(CCOC)C(=O)c2ccc(Br)o2)c(=O)[nH]c1=O
→ i	0.7
COc1cc2c(C(=O)N3CCN(C)CC3)c(C)oc2cc1Br
→ i	0.05
Cc1ccc(C(C)C)c(OCC(=O)c2c(O)c3ccccc3oc2=O)c1
→ i	1
COc1cccc(C(=O)N2c3cc(C)ccc3OCC2C(C)(C)C)c1 (stereo not given)
→ i	0.94
CC(=O)N1N=C(c2cccc(Cl)c2)OC1c1ccc(C(C)C)cc1 (stereo not given)
→ i	-2.3
COc1cccc(OCC(=O)O)c1
→ i	0.03
COc1ccc(-c2[nH]ncc2CN2CCN(c3ccc(F)cc3)CC2)cc1
→ i	0.02
COc1ccc(NC(=O)C2CCCN(C(=O)Nc3ccc(F)cc3)C2)cc1 (stereo not given)
→ i	0.44
Cn1cnc2cc(NC(=O)COc3ccccc3)ccc21
→ i	-0.84
CC(C)(C)c1cc(/C=N/NC(=O)Cc2nc3ccccc3[nH]2)cc(C(C)(C)C)c1O
→ i	0.37
CC(C)(C)C(=O)CSc1ncccn1
→ i	-0.24
CS(=O)(=O)c1cnc2c(S(=O)(=O)c3ccccc3)cnn2c1N
→ i	-0.01
CC1CN(/C(=N\S(=O)(=O)c2ccccc2)c2ccccc2)CC(C)O1 (stereo not given)
→ i	0.83
Cc1ccc(S(=O)(=O)N(Cc2cc3ccc(C)cc3[nH]c2=O)c2ccccc2)cc1
→ i	-0.54
CSc1ccccc1OCc1cc(C(=O)N2CCc3sccc3C2)no1
→ i	-1.2
CC(C)CC(=O)Nc1ccc(C(=O)CN2CCN(c3ccc(O)cc3)CC2)cc1
→ i	-1.1
CCC(=O)Nc1c2c(nn1-c1ccccc1C)CSC2
→ i	0.01
CCn1nc(C)c(/C=N/NC(=O)CSc2ccccn2)c1C
→ i	0.48
CCOC(=O)c1c(-c2cccs2)csc1NC(C)=O
→ i	-1.2
CCN1C(=S)SC(=O)C1=C1C=C(C)N(CCO)C(C)=C1
→ i	4.2
O=c1c(CN2CCN(c3ccccn3)CC2)coc2ccccc12
→ i	0.16
Cc1nn(CC(=O)NC(C)c2ccccc2)c(=O)c2ccccc12 (stereo not given)
→ i	2.6
CCCN(CCC)C(=O)C1CCC(CNS(=O)(=O)c2cccc3nsnc23)CC1 (stereo not given)
→ i	0.7
Cc1ccc(-c2nc3ccccc3s2)cc1NC(=S)NC(=O)/C=C/c1ccco1
→ i	-0.33
CCOC(=O)C1CCCN(c2c(NCC3CCCN3CC)c(=O)c2=O)C1 (stereo not given)
→ i	0.55
Cc1ccc(CNC(=O)C23CN(Cc4ccccc4)CC2C(c2ccc([N+](=O)[O-])cc2)=NO3)cc1 (stereo not given)
→ i	1.4
Clc1ccc(OCc2nnc(SCc3nnc(-c4ccccc4)o3)o2)c(Cl)c1
→ i	0.51
CCOC(=O)c1c(NC(=O)CSc2nccn2C)sc(C(=O)NC)c1C
→ i	1.6
Cc1ccccc1NC(=O)Nc1c(C)n(C)n(-c2ccccc2)c1=O
→ i	-0.61
O=C(c1cccc(F)c1)N1CCN(CC2CC3C=CC2C3)CC1 (stereo not given)
→ i	2.5
O=C(CN1CCN(Cc2ccccc2F)C1=O)NCC1CCCO1 (stereo not given)
→ i	1.4
Cc1[nH]c2ccc(CNS(=O)(=O)c3ccc(S(=O)(=O)N4CCOCC4)cc3)cc2c1C
→ i	0.06
CCOc1ccc(/C(CCC(=O)O)=N/NC(=S)NCCc2ccccc2)cc1
→ i	-0.3
O=C(Cc1csc(-c2ccccc2)n1)NCc1ccco1
→ i	0.06

# This is a subset. The share of hits here may be higher or lower than overall.
